Compound activity as filed in PubChem.
YopH inh: inhibitors of Yersinia enterocolitica YopH tyrosine phosphatase. fluorescence Ex485/Em525. inhibition, %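 (about 10 µM by stock and volumes)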. 140,000 tested, 0.16% active;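 active means inhibition of 50% or more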;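 further: controls were vehicle for no effect and minimum signal wells for full effect; inactives centre near -20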
Mtb bLac sens: beta-lactam sensitization of Mtb H37Rv; M. tuberculosis H37Rv growth with meropenem, percent inhibition; hits of this screen are not shown here; inhibition, % at 25 µM; 330,000 tested, 0.27% active; AID 434955;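 active means about 74% or more and at least 40 points above the plate without the antibiotic, then above 30% in a dose series; inconclusive means first-round hits that could not be retested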;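 further: growth measured after seven days incubation then overnight dye step; 0% = bacteria only wells and 100% = bacteria with antibiotic; twin plates without the antibiotic show which effects depend on it; some results filed as inactive read as strong as hits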
Mtb growth: M. tuberculosis H37Rv growth inhibitors, H37Rv strain (AID 1626); M. tuberculosis H37Rv growth inhibition; higher % means a stronger effect; 220,000 tested, 0.95% active; one-dose inhibition, % at 10 µM; IC50 in µM for titrated hits;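 active means confirmed in a dose series; inconclusive means inhibition above 80% but not taken into the dose series; inactive means below 80% or under 30% at every dose of the series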;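 further: bacteria incubated seven days before Alamar blue readout; 0% = bacteria only wells and 100% = bacteria with antibiotic wells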
Arbovirus inh: antivirals against arbovirus infection | 200,000 tested, 0.37% active | arbovirus infection cell-based antiviral screen | inhibition, % at 10 µM;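 active means inhibition from about 30%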;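 further: bluetongue infection of BSR cells; cell survival read as ATP light after 72 h; 0% = infected wells without compound and 100% = uninfected wells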
RecA splice inh: blocks M. tuberculosis RecA intein splicing. 290,000 tested, 0.75% active. cell-free RecA intein splicing, fluorescence. inhibition, %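 (about 9 µM by stock and volumes)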. P9WHJ3. AID 2221; in the data active means inhibition above about 30%; inconclusive means no clear call, values can overlap the other calls;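 further: 0% = vehicle wells and 100% = reference inhibitor control wells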
Target sequence (P9WHJ3 whole entry, looked up, canonical isoform): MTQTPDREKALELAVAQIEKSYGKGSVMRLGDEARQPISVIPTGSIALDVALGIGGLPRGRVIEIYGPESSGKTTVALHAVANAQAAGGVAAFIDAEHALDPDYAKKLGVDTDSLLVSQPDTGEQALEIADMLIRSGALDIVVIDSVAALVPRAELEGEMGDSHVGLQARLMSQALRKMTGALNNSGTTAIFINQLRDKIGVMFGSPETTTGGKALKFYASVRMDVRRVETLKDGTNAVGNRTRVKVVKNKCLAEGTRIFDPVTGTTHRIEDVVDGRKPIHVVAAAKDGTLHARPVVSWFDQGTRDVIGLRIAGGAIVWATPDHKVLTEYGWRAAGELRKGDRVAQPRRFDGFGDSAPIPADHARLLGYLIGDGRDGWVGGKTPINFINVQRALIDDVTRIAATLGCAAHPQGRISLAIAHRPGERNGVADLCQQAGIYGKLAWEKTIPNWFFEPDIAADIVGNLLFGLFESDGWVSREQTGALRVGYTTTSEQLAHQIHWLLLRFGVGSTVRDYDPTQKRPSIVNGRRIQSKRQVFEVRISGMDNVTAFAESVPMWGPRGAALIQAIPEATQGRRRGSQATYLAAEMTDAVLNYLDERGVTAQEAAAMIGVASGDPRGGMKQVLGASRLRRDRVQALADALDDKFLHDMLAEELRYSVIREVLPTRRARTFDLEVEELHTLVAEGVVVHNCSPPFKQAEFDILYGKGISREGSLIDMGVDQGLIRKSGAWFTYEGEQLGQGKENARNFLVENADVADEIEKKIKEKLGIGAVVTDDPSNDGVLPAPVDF
Arbovirus inh repeat: further read-out of Arbovirus inh, marked with its call; inhibition, %; measured here: 10K subset replicate screen; many hits read low in the repeat;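 first of two repeat runs on a subset; 0% = infected and 100% = uninfected wells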
* hit, by the source's call. This is a subset (hit frequency here may not be typical).

`CSc1ccccc1NC(=O)COC(=O)c1ccc(O)cc1` gave Mtb bLac sens -2.5, Mtb growth 6.0%, Arbovirus inh 5.5 and RecA splice inh 0.4.
Screening Cc1ccc2cc3c(NC(=O)c4cccnc4)nn(C)c3nc2c1 returned YopH inh -38.7, Mtb bLac sens 3.5, Mtb growth -6.1%, Arbovirus inh 3.0 and RecA splice inh -5.4.
`Cc1ccc(Sc2ccc(C(=O)N(C)C)cc2[N+](=O)[O-])cc1` gave Mtb bLac sens -0.1, Mtb growth 12.2%, Arbovirus inh 9.6 and RecA splice inh 0.0.
For Cn1nc(-c2ccccc2)cc1NC(=O)Nc1ccccc1F the results were Mtb bLac sens -3.4, Mtb growth 8.8% and RecA splice inh 1.5.
Screening O=S(=O)(c1ccc(O)cc1)c1ccc(O)cc1 returned Mtb bLac sens -2.6 and RecA splice inh -3.0.
Cn1cc(C=O)c2cc(F)ccc21 was read as Mtb bLac sens -1.2, Mtb growth 0.3%, Arbovirus inh 0.8 and RecA splice inh -3.8.
CNC(=S)N/N=C/c1cn(Cc2ccc(C)cc2)c2ccccc12 was read as YopH inh -31.9, Mtb bLac sens 4.8, Mtb growth 10.5%, Arbovirus inh 5.3 and RecA splice inh 8.4.
For COC(=O)c1[nH]c2ccc(Br)cc2c1NC(=O)CN1CCCc2ccccc21 the results were YopH inh 3.3, Mtb bLac sens 50.5, Mtb growth 12.6%, Arbovirus inh -9.1 and RecA splice inh 2.9.
`COc1ccc(OC)c(CNC(=O)CCc2cn(C)c3ccccc23)c1` gave Mtb bLac sens 3.7 and RecA splice inh 10.4.
`CCCCCOc1ccc(C(C)(O)C(CN2CCOCC2)c2ccccc2)cc1` (stereo not drawn) gave Mtb bLac sens 7.2 and RecA splice inh 7.0.
Screening O=S(=O)(NCc1cc(-c2ccccc2Cl)no1)c1ccc(Cl)cc1 returned YopH inh -55.2, Mtb bLac sens -5.9, Mtb growth -5.7%, Arbovirus inh 9.2 and RecA splice inh 5.0.
CC(C)(C)C1CCc2nc(NC(=O)Cc3cn4ccsc4n3)sc2C1 (stereo not drawn) was read as YopH inh -34.4, Mtb bLac sens 98.4, Mtb growth 30.7%, Arbovirus inh -35.5 and RecA splice inh -3.1.
`COc1ccc(NC(=O)C(c2ccc(OC)cc2)N(C)C(=O)c2cnccn2)cc1` (stereo not drawn) gave YopH inh -23.3, Mtb bLac sens -3.9, Mtb growth -9.1%, Arbovirus inh -2.0, RecA splice inh 0.6 and Arbovirus inh repeat 6.1.
`O=C(CSc1cn(CCNC(=O)c2c(F)cccc2F)c2ccccc12)NCC1CCCO1` (stereo not drawn) gave Mtb bLac sens -1.0 and RecA splice inh -0.9.
Screening COc1ccc(S(=O)(=O)Cc2ccc(C(=O)NCc3ccc(F)cc3)o2)cc1 returned YopH inh -34.0, Arbovirus inh -0.7 and Arbovirus inh repeat 2.7.
O=C(/C=C/c1ccccc1F)c1ccoc1 was read as YopH inh -4.3, Mtb bLac sens 86.0, Mtb growth 2.1%, Arbovirus inh 1.9 and RecA splice inh -0.8.
CCCc1cc(=O)[nH]c(SCC(=O)Nc2ccc(C)cc2)n1 was read as Mtb bLac sens -0.5, Mtb growth 1.7%, Arbovirus inh -1.1 and RecA splice inh -3.5.
`C/C(=C\c1ccccc1)CN1CCN(C)CC1` gave Mtb bLac sens 0.8 and RecA splice inh -0.7.
`COCCn1c(CN2CCN(c3cccc(Cl)c3)CC2)nc2c1c(=O)n(C)c(=O)n2C` gave YopH inh -14.7, Mtb bLac sens 2.6, Mtb growth 11.4%, Arbovirus inh 9.4 and RecA splice inh 0.0.
Screening COC(=O)c1ccccc1NC(=O)CSCC(=O)Nc1ccccc1 returned YopH inh -22.4, Mtb bLac sens 6.8, Mtb growth -1.7%, Arbovirus inh 8.8 and RecA splice inh 1.2.

Part of the list above in order of heavy-atom count, ascending.
Cn1cc(C=O)c2cc(F)ccc21 was read as Mtb bLac sens -1.2, Mtb growth 0.3%, Arbovirus inh 0.8 and RecA splice inh -3.8.
`C/C(=C\c1ccccc1)CN1CCN(C)CC1` gave Mtb bLac sens 0.8 and RecA splice inh -0.7.
`COCCn1c(CN2CCN(c3cccc(Cl)c3)CC2)nc2c1c(=O)n(C)c(=O)n2C` gave YopH inh -14.7, Mtb bLac sens 2.6, Mtb growth 11.4%, Arbovirus inh 9.4 and RecA splice inh 0.0.

(continued)
Screening CCOC(=O)c1c(NC(=O)CSc2nnnn2-c2ccccc2)sc2c1CCC(C)C2 (stereo not drawn) returned YopH inh -8.6, Mtb bLac sens -3.4, Mtb growth 1.5%, Arbovirus inh -6.2 and RecA splice inh 4.2.
For CN(C)S(=O)(=O)c1ccc2c(c1)c(=O)c(C(=O)N1CCN(c3ccccn3)CC1)cn2C the results were YopH inh -53.6, Mtb bLac sens -1.3, Mtb growth -10.2%, Arbovirus inh 7.6, RecA splice inh 0.4 and Arbovirus inh repeat 1.4.
`Cc1nc(NC(=O)CCC(=O)O)sc1C(=O)N(C)C` gave YopH inh -35.2, Mtb bLac sens -2.1, Mtb growth -5.2%, Arbovirus inh -1.1 and RecA splice inh -0.1.
`CNC(=S)NC1CC2CCC(C1)N2Cc1ccccc1` (stereo not drawn) gave YopH inh -31.9, Mtb bLac sens -3.2, Mtb growth 11.7%, Arbovirus inh -6.5 and RecA splice inh -0.7.
Screening O=C(Nc1c(C(=O)N2CCCC2)cnn1-c1ccccc1)c1cccc(F)c1 returned YopH inh 35.6, Mtb bLac sens -7.0, Mtb growth -19.3%, Arbovirus inh 2.8, RecA splice inh -0.2 and Arbovirus inh repeat -1.9.
For CNC(=O)C1CC(=O)N(CCc2ccc(C)cc2)C1 (stereo not drawn) the results were Mtb bLac sens 1.2 and RecA splice inh -2.4.
Screening Cc1cc(C)c(C(=O)Nc2cccc(F)c2)c(Cl)n1 returned Mtb bLac sens 5.8, Mtb growth 4.9%, Arbovirus inh 5.4 and RecA splice inh 1.5.
`O=C(N=C1SC2CS(=O)(=O)CC2N1c1ccc(Cl)cc1)C1CCCO1` (stereo not drawn) gave Mtb bLac sens 3.4 and RecA splice inh 4.9.
For COc1ccccc1-n1c(SCC(=O)O)nc2c(sc(=S)n2-c2ccc(Cl)c(C)c2)c1=O the results were Mtb bLac sens 9.3 and RecA splice inh -48.8.
`CCn1c(CCNC(=O)c2cccs2)nnc1SCC(=O)Nc1cccc(Cl)c1` gave YopH inh -33.5, Mtb bLac sens 5.3, Mtb growth -3.9%, Arbovirus inh 1.4 and RecA splice inh 4.4.
For COc1ccc(CCNc2cc(C)nc(N)n2)cc1OC the results were Mtb bLac sens 2.8 and RecA splice inh -1.2.
For Clc1ccc(CNc2nc(CN3CCOCC3)nc3scc(-c4ccccc4)c23)cc1 the results were YopH inh -7.6, Mtb bLac sens 95.1, Mtb growth 22µM*, Arbovirus inh -42.5 and RecA splice inh 19.1.
For C=CCn1c(O)c(C=Nc2ccccc2)sc1=S the results were Mtb bLac sens -8.0, Mtb growth -4.2% and Arbovirus inh -13.1.
Screening COc1cc(C(=O)N(Cc2ccccn2)CC2CCCO2)cc(OC)c1OC (stereo not drawn) returned YopH inh -41.7, Mtb bLac sens -7.1, Mtb growth -6.4%, Arbovirus inh -2.8 and RecA splice inh -0.7.
For CCOC(=O)C1CCCN(S(=O)(=O)c2cccc3cccnc23)C1 (stereo not drawn) the results were YopH inh -3.0, Mtb bLac sens -1.7, Mtb growth -6.4%, Arbovirus inh 2.1 and RecA splice inh -0.2.
For COc1cccc(C(=O)N/N=C/c2ccc(OC3CSC3)cc2)c1 the results were YopH inh -20.2, Mtb bLac sens 1.8, Mtb growth 4.6%, Arbovirus inh -4.4 and RecA splice inh -0.7.
Screening Cc1ccc(NC(=O)CN(C)C(=O)CSc2n[nH]c(N)n2)cc1 returned YopH inh -41.8, Mtb bLac sens -10.2, Mtb growth -3.0%, Arbovirus inh 5.9 and RecA splice inh 0.0.
Screening Cc1cccc(C)c1NC(=S)NCCc1ccccn1 returned YopH inh -19.1, Mtb bLac sens -3.3, Mtb growth -1.6%, Arbovirus inh 8.7 and RecA splice inh -0.1.
For Cc1cc(C(=O)OCC(=O)NCc2ccco2)c(C)o1 the results were Mtb bLac sens 1.1, Mtb growth 4.5%, Arbovirus inh 3.2 and RecA splice inh -0.8.
`COc1ccc(N2CCN(c3nc(Cl)nc(N4CCOCC4)n3)CC2)cc1` gave YopH inh -17.8, Mtb bLac sens 91.7, Mtb growth 17.0%, Arbovirus inh -0.9 and RecA splice inh -1.0.
COc1ccc(-c2c(C(F)(F)F)oc3cc(OCC(=O)Nc4ccccc4C(F)(F)F)ccc3c2=O)cc1OC was read as YopH inh -28.8, Mtb bLac sens 76.3, Mtb growth 17.6%, Arbovirus inh -27.4 and RecA splice inh 1.7.
For CCN(CC)CCCNC(=O)c1cn(CC(C)C)c(=O)c2c1c1ccccc1n2C the results were Mtb bLac sens 5.2 and RecA splice inh -0.5.
Screening Cc1ccc(/C(N)=N/OC(=O)CCc2ccccc2)cc1 returned YopH inh -0.2, Mtb bLac sens 0.8, Mtb growth 7.2%, Arbovirus inh -0.1 and RecA splice inh 3.1.
For COc1cc(/C=C(\C#N)c2ccccn2)ccc1OCc1ccccc1Cl the results were YopH inh -25.8, Mtb bLac sens 87.9, Mtb growth 57.4% and Arbovirus inh -0.1.
Screening Cc1nonc1NCn1nnc2ccccc21 returned YopH inh -94.1, Mtb bLac sens -1.7, Mtb growth -2.8%, Arbovirus inh 10.8 and RecA splice inh -0.9.
O=c1[nH]ncc(N/N=C\c2ccc(O)cc2O)c1Cl was read as Mtb bLac sens -4.0, Mtb growth 6.4%, Arbovirus inh 7.3 and RecA splice inh -2.4.
Screening COc1ccc(C(=O)COC(=O)c2ccc(NC(C)=O)cc2)cc1[N+](=O)[O-] returned YopH inh -44.3, Mtb bLac sens 1.9, Mtb growth -9.4%, Arbovirus inh 13.0 and RecA splice inh -2.7.
Cc1ccc(S(=O)(=O)Nc2cccc(C(=O)NCC(c3ccco3)N3CCCCC3)c2)cc1F (stereo not drawn) was read as Mtb bLac sens -2.6 and RecA splice inh 2.6.
For Cn1nc([N+](=O)[O-])c(C(C#N)c2nc3ccccc3n2C)c(Cl)c1=O (stereo not drawn) the results were YopH inh -18.9, Mtb bLac sens 1.7, Mtb growth -5.6%, Arbovirus inh 4.7 and RecA splice inh -9.7.
For CSc1nnc(-c2sccc2-n2cccc2)o1 the results were Mtb bLac sens -5.3, Mtb growth -10.0% and Arbovirus inh -5.0.
COCCNC(=O)CN1CCCCCC1 was read as Mtb bLac sens -2.3, Mtb growth -5.0%, Arbovirus inh 4.6 and RecA splice inh -0.2.
Screening CC(C)(C)NC(=O)CSCc1ccc(Br)cc1 returned Mtb bLac sens 0.7, Mtb growth 3.5%, Arbovirus inh 0.3 and RecA splice inh 0.8.
For Cc1nn(CC#N)c(=O)n1-c1cccc(F)c1 the results were YopH inh -22.1, Mtb bLac sens -5.7, Mtb growth -7.1%, Arbovirus inh 10.3 and RecA splice inh -0.8.
`Cc1cc(NCc2ccccn2)n2nc(C)c(-c3ccc(Cl)cc3)c2n1` gave Mtb bLac sens 99.5, Mtb growth inconclusive and RecA splice inh 1.2.
For CC(C)c1nc2sc3c(=O)[nH]c(=S)[nH]c3c2c2c1CCCC2 the results were Mtb bLac sens 0.3, Mtb growth -3.9% and RecA splice inh -3.2.
For CCOc1ccccc1C(=O)NCC(=O)OCC(=O)c1ccc2c(c1)OCCO2 the results were YopH inh -45.4, Mtb bLac sens -0.2, Mtb growth 6.1%, Arbovirus inh 3.7 and RecA splice inh -0.6.
Screening COc1ccc(CC(NC(C)=O)C(=O)NC2CCN(C(=O)NCc3ccccc3)CC2)cc1OC (stereo not drawn) returned YopH inh 1.6, Mtb bLac sens 3.1, Mtb growth 3.8%, Arbovirus inh -2.0 and RecA splice inh -3.5.
Screening O=[N+]([O-])c1ccc(NCc2ccc(Cl)cc2)nc1 returned Mtb bLac sens 0.1, Mtb growth 5.5% and RecA splice inh 4.6.
`O=C(NCCS(=O)(=O)c1ccc(Br)cc1)c1ccc(Cl)cc1` gave Mtb bLac sens -10.9 and RecA splice inh -1.4.
Cc1ccc(NC2CCCN(C(=O)c3cc(C(C)C)[nH]n3)C2)cc1C (stereo not drawn) was read as Mtb bLac sens -3.1 and RecA splice inh -1.5.
For Clc1ccc(-c2nnc(SCc3nc4ccccc4s3)o2)cc1 the results were YopH inh -30.1, Mtb bLac sens 97.6, Mtb growth 5.3µM*, Arbovirus inh -8.4 and RecA splice inh -1.0.
`O=C(c1nnc(-c2ccncc2)o1)c1ccccc1Cl` gave YopH inh -42.2, Mtb bLac sens 2.9, Mtb growth -2.9%, Arbovirus inh -1.0 and RecA splice inh -1.1.
For CC(=O)N1CCc2cc(S(=O)(=O)NCCCOC(C)C)ccc21 the results were YopH inh -26.1, Mtb bLac sens 2.1, Mtb growth -14.4%, Arbovirus inh 11.9 and RecA splice inh 1.6.
